From PubChem
LYPLA1 inh – blocks human lysophospholipase 1, a PME1 counter-screen | O75608 | recombinant LYPLA1, FP-Rh probe fluorescence polarization | inhibition, % at 5.9 µM | hit rate 0.16% among 320,000;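 active = inhibition above the mean of all tested compounds plus 3 SD, set per campaign, cut at about 14% in these data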;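 also: inhibitors block serine hydrolase probe labeling of LYPLA1 so polarization falls; 0% = enzyme with DMSO and 100% = wells lacking LYPLA1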
GSTO1 inh – counter-screen for RBBP9 inhibitors: inhibitors of human GSTO1. recombinant GSTO1, activity-based probe fluorescence polarization. inhibition, % at 5.96 µM. hit rate 1.1% among 300,000;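 active = inhibition above the campaign mean inhibition plus 3 SD, cut at about 35% in these data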;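 also: 0% = GSTO1-1 with DMSO and 100% = wells lacking GSTO1-1 enzyme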
Target sequence (P78417 whole entry, looked up): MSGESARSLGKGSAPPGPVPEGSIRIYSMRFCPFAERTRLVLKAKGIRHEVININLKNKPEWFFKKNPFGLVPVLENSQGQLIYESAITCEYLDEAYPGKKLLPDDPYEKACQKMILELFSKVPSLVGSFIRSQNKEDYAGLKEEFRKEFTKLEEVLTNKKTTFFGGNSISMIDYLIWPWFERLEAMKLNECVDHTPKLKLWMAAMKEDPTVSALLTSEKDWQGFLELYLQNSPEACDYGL
PME-1 inh – PME-1 (human) inhibition; hit rate 0.53% among 320,000; recombinant PME-1, FP-Rh probe fluorescence polarization; AID 2130; Q9Y570; inhibition, % at 5.9 µM;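 active = inhibition above the campaign mean of all compounds plus 3 SD, cut at about 26% in these data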;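 also: competitive labeling of PME-1 active site by serine hydrolase directed probe; 0% = PME-1 with DMSO and 100% = wells lacking PME-1 enzyme; inhibitors block probe labeling so polarization falls and inhibition rises; many of its hits are not listed in these tables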
LYPLA2 inh – blocks human lysophospholipase 2, a PME1 counter-screen; AID 2177; inhibition, % at 5.9 µM; recombinant LYPLA2, FP-Rh probe fluorescence polarization; hit rate 0.38% among 320,000;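 active = inhibition above the screen-wide mean plus 3 SD, limit set per campaign, cut at about 26% in these data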;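 also: 0% = LYPLA2 with DMSO and 100% = wells lacking LYPLA2 enzyme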
PAD4 FP inh – inhibitors of human PAD4; inhibition, % at 6.36 µM; Q9UM07; hit rate 0.41% among 330,000; recombinant PAD4, RCA probe fluorescence polarization;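 active = percent inhibition above a cutoff equal to the mean of all tested compounds plus 3 SD, cut at about 15% in these data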;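 also: 0% = PAD4 with RCA probe and DMSO and 100% = probe without PAD4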
pPAFAH FP inh – inhibitors of human plasma PAF acetylhydrolase (pPAFAH) | recombinant pPAFAH, FP-rhodamine probe fluorescence polarization | hit rate 1.5% among 330,000 | inhibition, % at 3.39 µM | AID 463082;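 active = inhibition above the mean inhibition across the screen plus 3 SD, cut at about 25% in these data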;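 also: inhibitors block binding of the rhodamine activity-based probe so polarization drops; 0% = enzyme with DMSO and 100% = wells lacking pPAFAH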
Target sequence (Q13093 whole entry, looked up): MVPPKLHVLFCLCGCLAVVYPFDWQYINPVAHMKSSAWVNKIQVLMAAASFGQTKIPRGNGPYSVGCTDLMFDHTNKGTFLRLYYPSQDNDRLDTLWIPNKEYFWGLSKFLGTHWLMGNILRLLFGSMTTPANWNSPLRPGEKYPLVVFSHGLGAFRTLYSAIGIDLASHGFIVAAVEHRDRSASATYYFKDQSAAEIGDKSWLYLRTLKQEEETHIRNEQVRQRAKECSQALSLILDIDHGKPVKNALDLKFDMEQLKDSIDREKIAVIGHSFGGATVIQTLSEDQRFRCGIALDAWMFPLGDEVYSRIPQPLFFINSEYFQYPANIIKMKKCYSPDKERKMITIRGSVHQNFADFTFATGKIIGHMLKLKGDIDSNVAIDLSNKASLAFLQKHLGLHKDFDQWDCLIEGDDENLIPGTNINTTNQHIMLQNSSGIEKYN
PAFAH1B3 inh – inhibitors of human PAFAH1B3 | hit rate 0.28% among 340,000 | inhibition, % at 3.39 µM | recombinant PAFAH1B3, FP-rhodamine probe, fluorescence polarization | Q15102;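 active = inhibition above the screen-wide average of all tested compounds plus 3 SD, cut at about 25% in these data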;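 also: 0% = enzyme with DMSO only and 100% = wells lacking PAFAH1B3 protein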
Target sequence (Q15102 whole entry, looked up): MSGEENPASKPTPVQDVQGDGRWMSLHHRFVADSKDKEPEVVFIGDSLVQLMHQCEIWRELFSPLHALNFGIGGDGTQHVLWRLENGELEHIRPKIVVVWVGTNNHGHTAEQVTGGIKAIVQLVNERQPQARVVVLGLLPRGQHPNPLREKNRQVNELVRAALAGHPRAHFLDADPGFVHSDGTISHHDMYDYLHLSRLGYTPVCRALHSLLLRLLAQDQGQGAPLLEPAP
PAFAH2 FP inh – PAFAH2 (human) inhibition. inhibition, % at 3.39 µM. Q99487. AID 492956. hit rate 0.99% among 340,000. recombinant PAFAH2, FP-rhodamine activity probe, fluorescence polarization;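 active = inhibition above the mean over all tested compounds plus 3 SD, cut at about 30% in these data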;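 also: inhibitors block probe labeling of enzyme so polarization drops; 0% = enzyme with DMSO and 100% = wells lacking PAFAH2 protein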
Starred values were filed as active, the others as inactive; · = no result given.

Values run as follows: LYPLA1 inh | GSTO1 inh | PME-1 inh | LYPLA2 inh | PAD4 FP inh | pPAFAH FP inh | PAFAH1B3 inh | PAFAH2 FP inh
1: CC1CN(CCOCCSc2ccc(Cl)cc2)CC(C)O1 (centres undefined)
  4 | -5 | -4 | 10 | 0 | 5 | 2 | -5
2: O=C(CSc1nnc(Cc2ccccc2)n1-c1cccc(Cl)c1)NNC(=O)Cc1ccccc1
  -3 | 4 | -9 | -5 | 0 | 4 | 10 | 7
3: CC1CCN(S(=O)(=O)c2ccc(C(=O)Nc3ncccc3O)cc2)CC1
  -5 | -7 | 8 | -8 | -2 | 19 | 10 | -2
4: Cc1ccc(S(=O)(=O)Oc2ccccc2/C=C2/SC(=O)NC2=O)cc1
  -5 | -37 | -1 | 4 | 1 | -6 | 0 | -1
5: CC1(C)NC(=O)N(CCCCOc2ccc(Cl)cc2)C1=O
  2 | 2 | -9 | 1 | -7 | -6 | 2 | 1
6: O=C(Cc1ccccc1)Nc1nnc(-c2cccs2)s1
  0 | -7 | 2 | -5 | 2 | 0 | 5 | -1
7: CN(CC(=O)Nc1ccc(Cl)c(C(F)(F)F)c1)C(=O)CCCc1nc2ccccc2c(=O)[nH]1
  -3 | · | -2 | 0 | -3 | 3 | 5 | 1
8: Cc1ccc(S(=O)(=O)N2[C@@H](c3ccc(Br)cc3)C(C(=O)O)=C[C@H]2C(C)(C)C)cc1
  · | · | · | · | -3 | 2 | 2 | 7
9: CC(C)(C)c1ccc(OCCNC(=O)Cc2ccc(F)cc2)cc1
  1 | 8 | -7 | 4 | 5 | 1 | 8 | -3
10: CCCc1cc(=O)[nH]c(SCC(=O)Nc2sc3c(c2C#N)CCC(C)C3)n1 (centres undefined)
  -2 | -15 | 10 | 4 | -5 | 7 | 9 | 6
11: Cc1ccc(S(=O)(=O)N2[C@@H](c3ccccc3)C(C(=O)O)=CC[C@H]2c2cccc(Cl)c2)cc1
  -2 | -32 | 0 | 2 | -1 | 2 | 2 | 7
12: CC(C)(C)c1[nH]nc2c1C(c1ccoc1)C(C#N)=C(N)O2 (centres undefined)
  0 | -2 | 5 | 1 | 2 | 5 | 5 | 4
13: O=C(Nc1nnc(COc2ccc(Cl)cc2)s1)C1CCCO1 (centres undefined)
  5 | 9 | -3 | 8 | -2 | 4 | 6 | 0
14: O=C(O)CC(NC(=O)C12CC3CC(CC(C3)C1)C2)c1ccc(OC2CCCC2)cc1 (centres undefined)
  1 | 5 | 3 | -8 | 0 | 0 | 3 | -2
15: N#CC(CCc1ccccc1[N+](=O)[O-])(CCc1ccccc1[N+](=O)[O-])C(N)=O
  · | · | · | · | · | · | 12 | 7
16: Cc1cc(OCC(=O)NC(Cc2ccc(Cl)cc2)C(=O)O)c2c(C)cc(=O)oc2c1 (centres undefined)
  -4 | 7 | -9 | -5 | 0 | -5 | 5 | 6
17: O=C(Nc1nnc(SCc2ccc(Cl)cc2)s1)C1CC(=O)N(Cc2ccccc2)C1 (centres undefined)
  -3 | 1 | 11 | 3 | -7 | 2 | 1 | 11
18: S=c1[nH]nc(-c2ccc(Cl)cc2)n1-c1ccc(Cl)cc1
  1 | 5 | -3 | 1 | 2 | 4 | 14 | -1
19: O=c1cc(CSc2ccccc2)[nH]c(=S)[nH]1
  -1 | 14 | -4 | -2 | 1 | -5 | 3 | -6
20: CSc1nnc(NC(=O)C23CC4CC(CC(C4)C2)C3)s1
  4 | -17 | 2 | -6 | -4 | 6 | 3 | -3
21: Cc1ccc(SCCNS(C)(=O)=O)cc1
  6 | 4 | 1 | 1 | 3 | 1 | 3 | 0
22: Cc1ccc(S(=O)(=O)c2ccc(Cl)cc2)cc1S(N)(=O)=O
  -3 | 1 | 4 | -2 | -5 | 3 | 1 | 3
23: CS(=O)(=O)N(CC(=O)O)c1ccc(C23CC4CC(CC(C4)C2)C3)cc1
  -5 | 5 | -2 | -5 | -2 | 1 | 6 | 5
24: CC(=O)n1c(-c2ccccc2)c(-c2ccccc2)n(C)c1=O
  1 | -4 | 4 | 4 | 6 | 4 | 0 | 13
25: CSc1ccccc1NC(=O)CSCc1ccccc1Br
  -1 | -2 | 7 | 1 | -4 | 2 | -11 | 6
26: O=S(=O)(c1ccc(Cl)cc1)N1CCC2(CC1)OCCN2S(=O)(=O)c1cccs1
  · | · | · | · | · | · | 5 | 8
27: Cc1cc2nc(CSc3ccc(Cl)cc3)cc(=O)n2[nH]1
  1 | 18 | -12 | 4 | -2 | 8 | 7 | 15
28: CCc1nnc(NC(=O)CSc2nnc(-c3ccc(OC)cc3)n2C)s1
  -5 | 4 | 5 | 2 | -6 | 5 | 2 | 0
29: O=C(NCc1ccc(Cl)cc1)C(=O)NCC1OCCN1C(=O)c1cccs1 (centres undefined)
  -1 | 0 | -2 | 2 | -11 | 5 | 4 | -3
30: NS(=O)(=O)c1cccc(NC(=O)CCSc2ccc(Cl)cc2)c1
  0 | 2 | -5 | 5 | -2 | 7 | 1 | -5
31: Cc1onc(-c2c(Cl)cccc2Cl)c1/C(N)=N/OC(=O)C(C)(C)C
  -1 | -5 | -6 | 2 | 1 | 0 | 1 | -5
32: CCC(Cc1ccccc1)NS(=O)(=O)c1ccc2c(c1)NC(=O)CO2 (centres undefined)
  1 | 22 | -2 | 7 | 2 | 7 | 9 | 11
33: O=C(COC(=O)CCc1ccccc1)NC12CC3CC(CC(C3)C1)C2
  0 | 2 | -5 | 4 | -4 | 19 | 5 | -3
34: Cc1ccc(SCC(=O)NCc2ccccc2)cc1
  -1 | 11 | 2 | -5 | -2 | 4 | 0 | 1
35: O=C(NCCc1ccc(Cl)cc1)c1ccc(S(=O)(=O)N2CCCC2)cc1
  2 | -2 | 6 | 5 | -2 | 1 | 2 | 2
36: N/C(=N\OC(=O)CCCc1ccccc1)c1ccccc1Cl
  2 | 4 | 7 | 6 | 2 | 7 | 0 | 3
37: O=C(CSc1ccc(Cl)cc1)NC(=O)NCc1ccco1
  -5 | 11 | 1 | 0 | 0 | 18 | 2 | 9
38: O=C(O)c1cc(S(=O)(=O)Nc2ccccc2Cc2ccccc2)ccc1Cl
  -2 | 2 | -2 | 1 | 1 | 6 | 11 | -4
39: COc1ccc(NS(=O)(=O)c2cccc(C(=O)NCCc3ccc(S(N)(=O)=O)cc3)c2)cc1
  1 | · | 11 | 0 | 1 | 27* | 6 | 2
40: CC(NC(=O)CSc1ccccc1C(=O)O)C1CC2CCC1C2 (centres undefined)
  0 | 10 | 0 | 8 | -8 | -2 | 9 | -1
41: CC(CCc1ccccc1)NS(=O)(=O)c1ccccc1Cl (centres undefined)
  0 | 18 | 6 | -1 | 5 | 3 | 3 | -12
42: O=C(COC(=O)C1(c2ccc(Cl)cc2)CCCC1)NC1CCS(=O)(=O)C1 (centres undefined)
  3 | 3 | 1 | 3 | 0 | 4 | -3 | -3
43: O=C(CNC(=O)c1ccccc1Br)NCCSc1ccc(Br)cc1
  1 | 12 | -1 | 0 | 2 | 7 | 10 | 0
44: O=C(NCCc1c[nH]c2ccccc12)c1ccc2[nH]c(=O)c(=O)[nH]c2c1
  0 | -3 | -1 | -5 | -8 | 0 | 7 | 1
45: O=C(NCc1cccnc1)c1ccc(COc2ccc(Cl)cc2)cc1
  -3 | 0 | -1 | 22 | -2 | 2 | 4 | 0
46: c1ccc(-c2nnc(N3CCN(c4ccccn4)CC3)c3ccccc23)cc1
  4 | 3 | 0 | 5 | -1 | 4 | -1 | 7
47: CC1CCCC(C)N1c1nnc(NC(=O)c2cc(-c3ccc(Br)cc3)on2)s1 (centres undefined)
  -5 | 3 | -1 | -4 | 0 | 9 | 2 | 4
48: CS(=O)(=O)CCC(C(=O)OCc1ccc(Br)cc1)N1C(=O)c2ccccc2C1=O (centres undefined)
  -3 | -1 | 1 | 2 | -7 | -3 | 0 | -4
49: O=C(NCc1ccc(Cl)cc1)c1csc(-c2cccnc2)n1
  1 | -1 | 5 | 1 | -4 | -3 | 12 | 1
50: N#CC(CCc1ccc([N+](=O)[O-])cc1)(CCc1ccc([N+](=O)[O-])cc1)C(N)=O
  · | · | · | · | · | · | 3 | 6
51: Nc1ccc(C(=O)NCC2(c3ccccc3)CCCC2)cc1
  2 | -1 | 3 | 3 | -5 | 0 | 0 | 5
52: Cc1nn(-c2ccccc2)c(C)c1/C=N/n1c(-c2ccncc2)n[nH]c1=S
  -2 | 0 | 10 | -3 | -1 | 0 | -5 | 2
53: O=C(NCc1cccnc1)c1cccc(NS(=O)(=O)c2ccc(Br)cc2)c1
  -3 | 4 | -2 | 1 | 0 | 6 | 2 | -8
54: Cc1ccc(/C=N/n2c(-c3ccncc3)n[nH]c2=S)o1
  3 | 3 | 7 | 9 | -1 | 0 | 9 | 1
55: Cc1ccc(S(=O)(=O)Nc2cccc(S(=O)(=O)Nc3ccccc3C(=O)O)c2)c(C)c1
  · | · | · | · | 1 | 4 | 0 | 5
56: O=S(=O)(c1ccc(Cl)cc1)N1CCN(c2ncccn2)CC1
  -1 | 4 | 7 | -1 | 3 | 0 | 7 | -7
57: CCc1ccc([C@@H]2CC=C(C(=O)O)[C@H](c3ccc(Br)cc3)N2S(=O)(=O)c2ccc(C)cc2)cc1
  · | · | · | · | 1 | 0 | 13 | 5
58: CCOC(=O)Cn1c(=O)n(C2CCCC2)c(=O)c2ccccc21
  -2 | 0 | -1 | -3 | 0 | 0 | 3 | -1
59: Cc1ccc(S(=O)(=O)Oc2ccc(/C=C(/NC(=O)c3ccccc3)C(=O)O)cc2)cc1
  -2 | 23 | 3 | -1 | -2 | -2 | 0 | 5
60: CCCCN(C)C(=O)c1cn(C)c2ccc(S(=O)(=O)N3CCC(C)CC3)cc2c1=O
  0 | 4 | -1 | 14 | 3 | 3 | 7 | -2

Quoted at random: 3 entries already listed.
Values run as follows: LYPLA1 inh | GSTO1 inh | PME-1 inh | LYPLA2 inh | PAD4 FP inh | pPAFAH FP inh | PAFAH1B3 inh | PAFAH2 FP inh
49: O=C(NCc1ccc(Cl)cc1)c1csc(-c2cccnc2)n1
  1 | -1 | 5 | 1 | -4 | -3 | 12 | 1
50: N#CC(CCc1ccc([N+](=O)[O-])cc1)(CCc1ccc([N+](=O)[O-])cc1)C(N)=O
  · | · | · | · | · | · | 3 | 6
57: CCc1ccc([C@@H]2CC=C(C(=O)O)[C@H](c3ccc(Br)cc3)N2S(=O)(=O)c2ccc(C)cc2)cc1
  · | · | · | · | 1 | 0 | 13 | 5

Remaining list, next part
Values run as follows: LYPLA1 inh | GSTO1 inh | PME-1 inh | LYPLA2 inh | PAD4 FP inh | pPAFAH FP inh | PAFAH1B3 inh | PAFAH2 FP inh
61: CC(NC(=O)Cc1ccc(S(=O)(=O)N2CCOCC2)s1)c1ccc(Br)cc1 (centres undefined)
  · | · | · | · | · | · | -3 | -1
62: N#Cc1cccc(C(c2nnnn2Cc2ccccc2)N2CCCC2)c1 (centres undefined)
  -1 | 0 | 2 | -1 | 3 | -3 | 0 | 6
63: Cc1ccc(C(=O)NCCSc2ccc(Cl)cc2)cc1[N+](=O)[O-]
  -6 | -4 | -3 | -7 | -7 | 8 | 4 | 8
64: O=C(CSc1ncccc1C(=O)O)NC12CC3CC(CC(C3)C1)C2
  -3 | -2 | -2 | -4 | -5 | 4 | -2 | 26

Structures shown so far that contain fluorine, in the order listed:
Values run as follows: LYPLA1 inh | GSTO1 inh | PME-1 inh | LYPLA2 inh | PAD4 FP inh | pPAFAH FP inh | PAFAH1B3 inh | PAFAH2 FP inh
7: CN(CC(=O)Nc1ccc(Cl)c(C(F)(F)F)c1)C(=O)CCCc1nc2ccccc2c(=O)[nH]1
  -3 | · | -2 | 0 | -3 | 3 | 5 | 1
9: CC(C)(C)c1ccc(OCCNC(=O)Cc2ccc(F)cc2)cc1
  1 | 8 | -7 | 4 | 5 | 1 | 8 | -3

These rows are one share of the data. The share of hits here may be higher or lower than overall.
